Compound activity (PubChem)
D2 potentiator – Beta-Arrestin HTS for Positive Allosteric Modulators of the Human D2 Dopamine Receptor: Potentiators | D(2) dopamine receptor (Homo sapiens), P14416 | DiscoveRx D2 beta-arrestin cells, luminescence, 90 min; 100% = 57 uM dopamine signal | potentiation, % (no concentration beside the values) | 360,000 compounds, 0.23% hits | AID 624464, 2012; active = potentiation of 50% or more; inconclusive = 30% to 50%; inactive = 30% or less;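 further: compound concentration not given in the record; tested on top of an EC20 dose of dopamine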
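D2 cells co-treated with compound plus 50 nM dopamine (EC20) for 90 min at 37 deg C to detect potentiation. Beta-arrestin recruitment was read as enzyme-fragment luminescence after 1 h at ambient temperature. Full response was set by 57 uM dopamine.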
TRPV1 potentiator – HTS Assay for Compounds that Act as Potentiators of the Vanilloid Receptor 1. Transient receptor potential cation channel subfamily V member 1 (Homo sapiens), Q8NER1. AID 540277, 2011. 320,000 compounds, 0.02% hits. TRPV1-expressing cells, Fluo-8 calcium influx, capsaicin EC20 potentiation; host cell line not named in the record; control for the full effect not named in the record. potentiation, % at 8.33 µM; active means potentiation above 80%; inconclusive means 30% to 80%; inactive means below 30%; further: 0% is about no effect
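Fluo-8 calcium influx in TRPV1-expressing cells, kinetic read (ex 480/em 520 nm). Compound added and read 3 min for agonist activity, followed by capsaicin at EC20 final and 2 min further read for enhancement.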
CtBP-E1A blk – qHTS Assay for Inhibitors of the CtBP/E1A Interaction. AlphaScreen GST-E1A/His-CtBP binding, 1536-well; stronger effect = lower value; control for the full effect not named in the record. activity change, % (test concentration not listed). 340,000 compounds, 0.49% hits. AID 651724, 2012; in the data active means activity change below about -65%; inconclusive means about -30% to -65%; inactive means above about -30%; further: on the % scale 0 is the no-effect control and ±100 the full control effect
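Homogeneous bead-based format: GST-tagged E1A captured on glutathione donor beads, His-tagged CtBP on nickel acceptor beads; compounds precede bead addition by 2 h at 37 °C.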
TRPML1 agonist – qHTS for Agonists of the Human Mucolipin Transient Receptor Potential 1 (TRPML1) | Mucolipin-1 (Homo sapiens), Q9GZU1 | TRPML1-expressing cells, Ca2+ dye fluorescence, FDSS; host cell line not named in the record; reference of the full effect not given here | activation, % (concentration not given with the values) | 410,000 compounds, 0.12% hits; in the data active = activation above about 50%; inconclusive = about 30% to 50%; inactive = below about 30%; further: 0% is about no effect; the text of the record puts the active cut at 80%
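Calcium fluorescence on an FDSS kinetic reader gave the read-out. Tet-induced TRPML1-DL cells were plated overnight, dye-loaded (Ca8 with quencher, 45-90 min, room temperature, dark), then read 110 s after compound addition, and again 110 s after 4uM final 54-4 (EC80).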
Six1-Eya2 blk – qHTS Assay for Inhibitors of the Six1/Eya2 Interaction. AlphaScreen GST-Six1/His-Eya2 binding, biochemical; stronger effect = lower value; control for the full effect not named in the record. activity change, % (no concentration beside the values). 360,000 compounds, 0.56% hits. AID 651725, 2012; in the data active = activity change below about -65%; inconclusive = about -30% to -65%; inactive = above about -30%; further: on the % scale 0 is the no-effect control and ±100 the full control effect
Target sequence (O00167 whole entry, looked up): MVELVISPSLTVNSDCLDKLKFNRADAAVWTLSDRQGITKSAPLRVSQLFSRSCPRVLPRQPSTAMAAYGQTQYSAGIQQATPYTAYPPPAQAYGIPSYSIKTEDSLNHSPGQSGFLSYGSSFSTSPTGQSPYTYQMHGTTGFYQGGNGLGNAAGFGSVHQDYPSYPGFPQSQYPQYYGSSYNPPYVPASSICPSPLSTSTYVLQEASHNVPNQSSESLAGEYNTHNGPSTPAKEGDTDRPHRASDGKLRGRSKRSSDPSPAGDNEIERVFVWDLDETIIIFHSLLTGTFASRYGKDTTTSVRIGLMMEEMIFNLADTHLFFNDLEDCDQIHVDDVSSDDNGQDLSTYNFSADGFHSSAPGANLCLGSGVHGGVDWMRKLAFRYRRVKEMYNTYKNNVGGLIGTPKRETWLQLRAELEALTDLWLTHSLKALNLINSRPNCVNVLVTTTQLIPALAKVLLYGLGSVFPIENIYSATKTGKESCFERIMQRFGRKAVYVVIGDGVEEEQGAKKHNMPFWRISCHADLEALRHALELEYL
Target sequence (Q15475 whole entry, looked up): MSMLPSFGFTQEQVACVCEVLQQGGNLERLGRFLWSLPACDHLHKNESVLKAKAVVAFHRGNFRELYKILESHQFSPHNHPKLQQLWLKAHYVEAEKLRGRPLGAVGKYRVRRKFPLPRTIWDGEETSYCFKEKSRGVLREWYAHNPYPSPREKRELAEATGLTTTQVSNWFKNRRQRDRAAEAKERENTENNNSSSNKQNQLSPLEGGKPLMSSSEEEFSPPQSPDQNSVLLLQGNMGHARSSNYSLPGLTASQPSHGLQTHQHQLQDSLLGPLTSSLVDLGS
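AlphaScreen luminescence read after one hour at 37 °C in darkness. Pin-transferred compounds met GST-Six1 and His-Eya2 protein (5X stock 250 nM/500 nM) plus glutathione donor and Ni-chelate acceptor beads (5X, 50 ug/mL).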
TRPML1 inh – qHTS for Inhibitors of the Human Mucolipin Transient Receptor Potential 1 (TRPML1) | TRPML1-inducible cells, Ca2+ dye fluorescence, FDSS; stronger effect = lower value; inhibition of EC80 agonist-evoked calcium signal | activity change, negative = inhibition, % (no concentration beside the values) | 390,000 compounds, 0.02% hits | AID 624415, 2012; in the data active means activity change below about -50%; inconclusive means about -30% to -50%; inactive means above about -30%;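 further: stimulus is agonist 54-4 at its EC80 concentration; on the % scale 0 is the no-effect control and ±100 the full control effect; compound concentration not given in the record; the text of the record puts the active cut at -80%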
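Tet-induced TRPML1-DL cells loaded with Ca8 no-wash calcium dye were read kinetically on FDSS. Compound addition was followed by EC80 agonist 54-4 (4 uM final); inhibition was read over 110 s.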
Numbers without * were called inactive; ? = inconclusive; · = not tested or not shown.

nr	structure	D2 potentiator	TRPV1 potentiator	CtBP-E1A blk	TRPML1 agonist	Six1-Eya2 blk	TRPML1 inh
1	Cc1[nH]c2ccccc2c1C(=O)COC(=O)c1nccnc1N	1	0	-1	0.0	-3	-6
2	CC(C)OC(=O)c1ccc2nc3ccccc3nc2c1	0	23	-11	-0.4	-18	13
3	O=C(C1=C[C@H](c2ccc3c(c2)OCO3)C[C@H](OCCCCO)O1)N1CCOCC1	-29	-27	5	-0.9	-1	2
4	CSc1nc(N2CCN(c3ccccc3Cl)CC2)c2ccccc2n1	-3	-9	17	1.3	31	-3
5	CCOC(=O)CCCN1CC(O)=C(c2nc(-c3ccc(Cl)cc3)cs2)C1=N	-7	6	-1	0.1	-6	9
6	CC(C)C(=O)N1CCN(c2ccc(NC(=O)c3cccs3)cc2Cl)CC1	-7	-16	0	3.4	-6	20
7	Cc1ccn2cc(-c3cccc(S(=O)(=O)N4CCCCC4)c3)nc2c1	-5	-23	-15	-1.3	-13	66
8	CC(=O)Nc1ccc(NC(=O)C(C)OC(=O)[C@@H]2CCCN2C(=O)c2cccs2)cc1 (stereo partly specified)	-10	·	4	-0.4	-1	-4
9	O=[N+]([O-])c1ccc(-c2csc(COc3ccccc3)n2)cc1	-12	·	0	2.1	2	79
10	CCOC(=O)C1CCN(S(=O)(=O)c2cc(Br)cc3c2N(C(=O)C2CC2)CC3)CC1	-25	0	-14	2.7	-5	3
11	Cc1ccc(NCCC(=O)c2cccs2)cc1Cl	-4	5	-7	0.7	-15	-11
12	COc1ccc(S(=O)(=O)N2CCOCC2)cc1NC(=O)CSc1n[nH]c(C(C)C)n1	1	-1	-25	0.4	-1	-20
13	COC(=O)c1ccc(N2C(=O)CC(SCC(=O)Nc3ccc(OC)cc3)C2=O)cc1 (stereo unspecified)	-10	-2	-1	0.1	0	-15
14	CC1CCCCC1NC(=O)COC(=O)c1ccccc1NC(=O)c1ccco1 (stereo unspecified)	-4	-17	7	-0.2	4	-6
15	CCOC(=O)c1sc(=NC(=O)c2cccs2)n(C)c1C	8	4	7	-0.7	2	-15
16	Cc1ccc(O)c(NC(=O)c2cc([N+](=O)[O-])ccc2Cl)c1	17	-8	0	-1.9	5	37
17	O=C(CSc1nc2[nH]ncc2c(=O)[nH]1)Nc1ccccc1C(F)(F)F	1	-32	0	0.1	0	-2
18	O=C(O)CCn1ccnc1-c1ccccc1	11	8	-3	-0.5	2	2
19	CC(=O)NC(=S)Nc1ccc(S(=O)(=O)N(C)Cc2ccccc2)cc1	3	3	18	1.6	2	2
20	CC(=O)c1cccc(NC(=O)c2ccc(NS(C)(=O)=O)cc2)c1	-26	-5	-1	1.4	-6	13
21	O=C(NCc1ccc2c(c1)OCO2)c1cccc(Cl)c1	-4	-7	0	-0.7	24	-5
22	Nc1[nH]c(C(=O)c2ccccc2)c(-c2ccncc2)c1C(=O)NC1CC1	·	·	1	0.2	1	·
23	CCCc1nnc(N2C(=O)c3cccc4cccc(c34)C2=O)s1	-4	0	0	0.3	16	8
24	O=C(Nc1cc(F)cc(F)c1)c1ccc(NCCCN2CCCCCC2)c([N+](=O)[O-])c1	-9	0	-12	0.4	-30	-4
25	CCNC(=S)N1CCC(C(=O)c2ccc(Cl)cc2)CC1	-1	1	10	0.6	-5	12
26	CCCCS(=O)CC(COc1ccc(Cl)cc1)OC(=O)c1ccccc1 (stereo unspecified)	-26	-5	3	1.6	2	11
27	Cc1onc(-c2c(F)cccc2Cl)c1C(=O)NCc1ccc(F)cc1	-2	?	·	0.2	1	2
28	COc1ccc2c(=O)c3c(=O)n(Cc4ccco4)c(-c4ccccc4)nc3oc2c1	-18	4	-13	1.4	-11	7
29	OCc1ccccc1SSc1ccccc1CO	-17	·	-2	1.8	-8	10
30	CN(CC(=O)OCC(=O)NC1CCCC1)S(=O)(=O)c1ccc(Cl)cc1	-3	·	0	3.9	5	-6
31	CCOC(=O)Cc1ncccc1C(=O)Nc1ccc(OC)cc1	-9	7	16	1.2	2	13
32	O=C(CN1C(=O)NC(c2ccccc2)(c2ccccc2)C1=O)NCc1cccs1	-1	-11	7	2.4	0	-20
33	CCOC(=O)Nc1c(C(=O)OC)[nH]c2cccc(OC)c12	10	-33	9	-0.6	-2	-7
34	COCCN(C(=O)CCCC(=O)Nc1ccccn1)C(C(=O)NC1CCCCC1)c1ccc(C)cc1 (stereo unspecified)	-7	5	3	-1.5	-3	-14
35	Cc1cc(NC(=O)CSC2=NS(=O)(=O)c3cc(F)ccc3N2)no1	-4	?	2	-0.7	5	-16
36	N#CCCN(Cc1ccccc1)C(=O)CCC(=O)c1ccc(F)cc1	-6	·	-2	0.2	0	-8
37	O=C(COC(=O)c1ccc(O)cc1)NCc1ccc2c(c1)OCO2	1	3	1	1.1	2	-14
38	Cc1cccc(-n2ccc(=O)c(C(=O)Nc3ccc(S(=O)(=O)Nc4nccc(C)n4)cc3)n2)c1	-4	-12	4	-0.7	-4	2
39	COc1ccc(C(C)C)cc1S(=O)(=O)N1CCN(C)CC1	-29	1	-11	1.0	0	4
40	O=[N+]([O-])c1cc(S(=O)(=O)N2CCCC2)ccc1NN=C1CCCC1	-4	-31	-6	-0.3	-8	6
41	COc1cc(SC#N)ccc1N=Cc1c(C)[nH]n(-c2cccc3ccccc23)c1=O	9	-6	?	-0.1	?	21
42	O=S(=O)(NC1CCCCCCC1)c1ccccc1	0	0	-1	0.7	20	11
43	Cc1cccc(C(=O)NNC(=S)NC(=O)c2ccccc2)c1	-24	·	-24	70*	0	6
44	COc1ccc(-c2cnc3c(NC(C)=O)cc(-c4ccc(S(C)(=O)=O)cc4)cn23)cc1OC	6	·	-14	-0.9	1	·
45	CC(C)C(=O)Nc1ccc(C(=O)N/N=C/c2cc(Br)cc(Br)c2O)cc1	-13	-25	-11	2.9	-1	6
46	O=C(O)c1cc(Cl)c2c(c1)[C@@H]1C=CC[C@@H]1[C@H](c1ccc(S(=O)(=O)N3CCOCC3)cc1)N2	18	11	-8	-0.4	?	-20
47	CCC(C)(C)n1nnnc1C(C(C)C)N(CCN1CCOCC1)Cc1cc2cccc(C)c2[nH]c1=O (stereo unspecified)	-23	5	30	-0.5	19	33
48	CC1=C(C(=O)OCc2ccccc2)C(c2ccc(C(F)(F)F)cc2)NC(=O)N1CCCCCC(=O)O (stereo unspecified)	-3	9	3	-0.3	-1	-9
49	Cc1ccc(CNC(=O)C2CCCCC2C(=O)O)cc1 (stereo unspecified)	-2	8	7	0.2	2	18
50	COC(=O)c1cc2c(cc1Cl)SC(=NCCCN1CCOCC1)NS2(=O)=O	-18	15	-2	-1.0	-5	-7
51	Cc1ccc(Oc2ccccc2NC(=O)CSCC(=O)Nc2cc(C)on2)cc1	2	6	-1	1.0	-6	9
52	COc1ccc(CNc2nc(NCc3ccc(OC)cc3)c3[nH]cnc3n2)cc1	18	8	·	2.4	0	17
53	COc1ccc(-n2c(C)cc(C(=O)COC(=O)Cn3cnc4ccccc43)c2C)cc1	?	9	-23	2.1	-17	1
54	Cc1cccc(-n2nc3c(c2NC(=O)C(C)C)CSC3)c1	-9	-1	·	0.3	-1	-19
55	O=C(C1=NOC2(C1)C(=O)Nc1ccccc12)N1CCCC1 (stereo unspecified)	·	·	7	-0.5	1	·
56	O=C(O)/C=C/c1ccc(S(=O)(=O)Nc2cccnc2)cc1	-9	2	0	0.2	6	-16
57	Clc1ccc(-c2csc(N3CCN(c4ccccc4)CC3)n2)cc1	3	-8	0	-0.2	8	6
58	Cc1ccccc1-c1nc(-c2ccc(Br)o2)no1	-2	-9	31	1.8	11	-12
59	CCc1cc2c(=O)c(-c3cscn3)coc2cc1O	-11	5	7	0.6	-6	-9
60	Cc1ccc(S(=O)(=O)N(C)C)cc1NC(=O)CN1C(=O)NC(Cc2c[nH]c3ccccc23)C1=O (stereo unspecified)	-12	19	6	0.6	5	6

Later entries.
nr	structure	D2 potentiator	TRPV1 potentiator	CtBP-E1A blk	TRPML1 agonist	Six1-Eya2 blk	TRPML1 inh
61	CCOc1ccccc1NC(=O)CNC(=O)Cc1ccccc1	-2	-21	5	-1.4	4	-10
62	Cc1ccc(OCCC(=O)OCC(=O)NC(=O)NCc2ccccc2)cc1	-7	11	1	1.6	-1	-11
63	N#Cc1c(-c2ccccc2)nc(SCC(=O)N2c3ccccc3Sc3ccccc32)[nH]c1=O	-4	-7	-10	·	-5	·
64	COc1ccc(CCn2cc(C#N)c(=O)[nH]c2=O)cc1OC	0	-2	10	-0.7	-6	11
65	C/C(=N\NC(=O)c1cccc(C)c1)c1cccc(NC(=O)c2ccco2)c1	-19	?	-5	-0.4	-8	9
66	CC1CCCC(C)N1C(=O)COC(=O)c1ccc(Br)o1 (stereo unspecified)	-15	·	-1	0.6	8	-14
67	CC(=O)NCCC(=O)N1CCCC(CNC(=O)c2ccc(-c3ccccc3)cc2)C1 (stereo unspecified)	-7	1	0	-0.1	4	-9
68	CC(C)(C)c1ccc(C(=O)COC(=O)CN2C(=O)NC3(CCCC3)C2=O)cc1	-7	-11	2	0.8	-4	-10
69	CCCSc1nc2ccccc2n1CC(=O)O	-6	4	-25	-0.5	1	-11
70	O=C1N(Cc2ccccc2)CC2(Br)COCOC12O (stereo unspecified)	-16	·	8	-0.1	8	-22
71	Oc1cccc(CCc2ccccn2)c1	-8	·	-2	0.2	8	-3
72	COc1cc(NS(=O)(=O)c2ccc(NC(=S)NC(=O)c3ccco3)cc2)nc(OC)n1	-15	?	0	0.6	11	5
73	COc1ccc(Cc2nnc(NC(=O)Cn3cnc4c3c(=O)n(C)c(=O)n4C)s2)cc1	7	-9	7	-0.6	-2	6
